Bead autofluor – compound fluorescence in toxin protease inhibitor counterscreen; fluorescence intensity (test concentration not listed); 3.1% of 360,000 active; compound autofluorescence counterscreen, microsphere flow cytometry; active compounds read high;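 active means at least 3 SD above the mean of all compounds, about 16000 in these data; inconclusive means too few beads counted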;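 further: 100 nL of 1 mM stock went into each well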
ugtP null kill – growth inhibition of S. aureus ugtP deletion strain | growth inhibition, % (concentration not given with the values) | 0.54% of 330,000 active | S. aureus RN4220 ugtP deletion, OD600 growth, 16 h; some inactives read as strong as hits | AID 1259309;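 active means z-score under -3 and OD600 up to 0.15 on both plates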;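 further: plate controls were untreated wells for no effect and antibiotic for full effect; wells of about 80 µL received 100 nL stock; the first replicate is given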
PrP 5UTR inh – inhibition of PrP 5' UTR reporter expression; cell-based PrP 5' UTR mRNA reporter, plate reader; inhibition, % (test concentration not listed); 0.35% of 340,000 active; AID 488862;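 active means every replicate at 50% or more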;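 further: 0 = median of the neutral control wells; tested in H4 reporter cells; numbers are from one replicate; inactives centre near -14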
Sa RN4220 lethal – kills Staphylococcus aureus RN4220; 0.33% of 330,000 active; S. aureus RN4220 growth, OD600, 16 h; inhibition, % (no concentration beside the values);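 active means z-score of -3 or lower and OD600 up to 0.18 on both plates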;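 further: plate controls were untreated cells for no effect and reference antibiotic for full effect; stock transfer was 100 nL into about 80 µL; one replicate is shown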
BJeLR lethal – kills HRASV12-expressing BJeLR cells; BJeLR (HRASV12) viability, CellTiter-Glo ATP luminescence, 48 h; reference of the scale not given here; inhibition, % (test concentration not listed); 0.17% of 300,000 active; AID 1554;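 active means replicate mean above 50%; inconclusive means above 50% but judged a plate artefact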;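 further: 50 nL library stock added to about 25 µL; numbers are from one replicate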
Mtb hypoxia inh – inhibitors of hypoxia-regulated fluorescent reporter in Mycobacterium tuberculosis | M. tuberculosis hypoxia-regulated fluorescent reporter, fluorescence | fluorescence inhibition, % (no concentration beside the values) | 0.1% of 300,000 active;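 active means 35 to 45% if threefold the growth effect, above 45% if 1.5-fold the growth effect; inactive means the rest, general growth blockers included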;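 further: wells of about 50 µL received 100 nL stock; 0% = vehicle wells and 100% = reference inhibitor wells; whole bacteria with a GFP reporter of the hypoxia response; strong numbers were not always called active; many hits fall short of the cut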
Mtb hypoxia inh growth – recorded beside Mtb hypoxia inh, whose call it bears; growth inhibition, %; measured here: M. tuberculosis growth (absorbance);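 0% = vehicle and 100% = reference antibiotic; read after six days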
Starred values were filed as active, the others as inactive; ? = inconclusive; . = not tested or not shown.

SMILES	Bead autofluor	ugtP null kill	PrP 5UTR inh	Sa RN4220 lethal	BJeLR lethal	Mtb hypoxia inh	Mtb hypoxia inh growth
C=CCn1c(SCc2ccc3c(c2)OCO3)nc2scc(-c3ccco3)c2c1=O	6250	40	-20	-2.4	-2	3	-3
CCn1c(SCC(N)=O)nnc1-c1ccco1	2509	8	-5	3.9	-8	1	5
COC(=O)c1cccc(N2C(=O)C(Cl)=C(N3CCOCC3)C2=O)c1	9960	-4	-19	4.2	-11	5	9
Cc1cc(C(=O)Nn2cnnc2)cs1	10589	-4	-18	-3.4	2	-7	0
COc1ccc(C(=O)Nc2cccc(-c3ccc(N4CCOCC4)nn3)c2)cc1	5731	5	-57	3.9	3	1	5
N/C(=N\OC(=O)C1CCCCC1)c1cccc(Br)c1	5629	-6	-45	-1.6	-7	-5	5
COc1ccc(S(=O)(=O)Nc2cc(C)nn2-c2ccccc2)cc1	4808	-3	-16	0.8	7	.	.
O=C(O)c1ccc(N=Nc2c(O)[nH]c3cc(Cl)ccc23)cc1	3692	.	-77	.	-4	.	.
S=C(NC1CCCCC1)NN(c1ccccc1)c1ccccc1	2813	-25	-16	-6.6	4	7	8
CC(NC(=O)CCNC(=O)c1ccc(Br)cc1)c1ccc(-n2ccnc2)cc1 (centres undefined)	?	4	-39	-0.4	0	13	3
c1ccc(-n2c(SCc3nc(-c4cccs4)no3)nnc2-c2ccco2)cc1	10902	4	8	14	2	7	5
CN1C2Cc3c(n(C)c4ccccc34)C1CC=C2CO (centres undefined)	4432	2	-11	4.8	.	16	9
CCC(=O)Nc1ccc(S(=O)(=O)N2CCc3ccccc32)cc1	4812	-8	-20	11	1	-13	3
COc1cc(/C=N/Nc2ccccn2)cc(OC)c1O	4100	.	-16	.	-6	.	.
CCOC(=O)CCNC(=O)N1CCCC(Cc2ccccc2)(C(=O)OCC)C1 (centres undefined)	3187	4	5	3.0	6	-6	-4
O=C1C=C(c2ccc(O)cc2)CC(c2ccc(Cl)cc2)C1 (centres undefined)	.	-19	.	-2.4	.	-2	6
Nn1cnnc1NN=Cc1cccc(Cl)c1Cl	.	1	.	2.5	.	-11	-8
CCOc1cccc(C=NNc2nc(N3CCCC3)nc(N3CCCC3)n2)c1O	.	4	.	2.4	.	-3	6
CN(Nc1cccc(Cl)c1)c1cccc(Cl)c1	3035	7	-15	1.6	.	17	6
Cc1ccc(NC(=O)/C(C#N)=C/c2cn(CC(=O)NCc3ccco3)c3ccccc23)cc1C	4559	9	-9	2.6	-1	9	-2
O=C(CSc1nnc2c(Cl)cc(Cl)cn12)N1CCOCC1	10003	-6	-18	0.9	-3	-5	12
COC(=O)C1=C(C)N(Cc2ccc(C)cc2)C(=O)/C1=C\c1cc(OC)c(OC)c(OC)c1	2418	.	-4	.	-4	.	.
CC(C)(C)Sc1ccc2nc3c(n2c1)CCCC3	2139	8	-19	5.4	-1	3	16
Cc1ccc2cc(C=NNC(=O)c3ccc(F)cc3)c(Cl)nc2c1	.	1	.	4.4	.	3	5
C[C@@H](NC(=O)[C@@H]1Cc2ccccc2CN1C(=O)OC(C)(C)C)C(=O)NCc1ccco1	4447	19	-12	7.5	0	1	-5
CC(=O)C(=CN(C)C)C(=O)Nc1ccc(Cl)cc1Cl	.	66	.	68	.	7	4
CCc1ccc(OCc2nnc(SCc3ccc(C(=O)O)cc3)o2)cc1	3320	17	6	12	-1	1	15
CN1/C(=C\C(=O)Nc2ccc(F)cc2)C(C)(C)c2ccccc21	2383	-13	-5	11	-7	3	4
COC(=O)c1c(NC(=O)/C=C/C(=O)O)sc(Cc2ccccc2)c1C	9431	-5	-10	16	0	5	-10
COc1ccc(NC(=O)COc2cccc3c2CCNC3=O)cc1	?	4	-13	2.9	0	-1	0
C=CCNCCCCOc1ccc(C)cc1[N+](=O)[O-]	4187	-4	-3	0.3	-1	.	.
Cc1cccc(C)c1Nc1nnc(SCC(=O)Nc2cc(S(=O)(=O)N3CCCCC3)ccc2Cl)s1	2603	-21	-17	-7.6	-31	-6	0
CCc1cc2c(=O)c(-c3ccc4c(c3)OCCO4)coc2cc1OS(C)(=O)=O	2081	4	-86	4.9	6	10	2
COC(=O)C1=C(c2ccc(F)cc2OCc2ccccc2)CC2CCC1N2C(=O)N1CCCCC1 (centres undefined)	.	0	.	0.5	.	10	14
OCC1(Cc2cccc(C(F)(F)F)c2)CCN(Cc2cc(F)cc(F)c2)CC1	4826	5	-9	-2.5	17	16	8
Cc1ccc(C(c2sc3nc(C)nn3c2O)N2CCN(c3ccccc3F)CC2)cc1 (centres undefined)	4317	5	-13	2.2	-12	.	.
O=Cc1ccc(N2N=C(c3ccccc3)CC2c2ccccc2)cc1 (centres undefined)	4507	2	6	-15	-2	6	-3
O=C(Cn1cnc2ccccc2c1=O)NCC1COc2ccccc2O1 (centres undefined)	2912	-7	2	-8.5	.	4	7
COc1ccc(/C=C/C(=O)Nc2ccccc2Cl)cc1S(=O)(=O)N1CCOCC1	3559	-9	-12	-3.1	8	-15	2
c1cc2c(cc1CN1CCN(C3CCCCCC3)CC1)OCO2	3509	-2	-19	-0.1	-7	-15	7
COC(=O)[C@H](C)N(Cc1ccc(Cl)c(Cl)c1)S(=O)(=O)CCNC1CCCC1	3837	-4	-10	3.5	.	1	3
COc1cc(N=c2c([N+](=O)[O-])nn(-c3ccc4c(c3)OCCO4)n2O)cc(OC)c1	2663	.	-10	.	-5	.	.
COc1ccc2oc(=O)c(C(=O)Nc3ccccc3O)cc2c1	4313	9	-18	8.5	-7	7	-5
O=C(Nc1ncccc1Cl)c1cc2ccccc2o1	4715	5	-121	7.8	9	4	2
COc1ccc(NS(=O)(=O)c2ccc3[nH]c(=O)[nH]c3c2)cc1OC	3655	12	3	2.0	-6	-6	-3
CC(=O)Nc1ccc(C(=S)NCc2ccco2)cc1	9767	-3	13	0.8	3	15	16
CCC(=O)c1c(NCCc2ccccc2)cc(C)oc1=O	2063	3	-5	2.0	-5	10	15
COc1ccc2nc(N3CCOCC3)cc(C)c2c1	9770	0	-182	3.9	0	17	8
CCOC(=O)c1c(NC(=O)c2ccc(N3C(=O)C4C5C=CC(C5)C4C3=O)cc2)sc2c1CCCC2 (centres undefined)	9647	-7	-25	8.5	5	-1	6
CC(=O)Nc1ccc(NC(=O)C(C)OC(=O)c2c(C)nn(-c3ccccc3)c2Cl)cc1 (centres undefined)	3923	6	-23	4.2	.	14	6
COc1ccc(C(=O)NNC(=O)C(=O)N2CCCCC2)cc1OC	5991	-4	-8	0.1	1	-4	5
Cc1ccccc1S(=O)(=O)NC(=NCc1ccc(F)cc1)c1ccccc1	3478	-1	-21	0.8	.	6	1
CC1CN(C2CCN(C(=O)c3cccc(Cl)c3)CC2)CC(C)O1 (centres undefined)	4749	2	-18	-1.6	0	.	.
COc1cc(C=NNC(=O)CSc2n[nH]c(=O)[nH]c2=O)cc(OC)c1O	.	4	.	5.0	.	1	-1
CCCn1c(N)c(C(=O)CN(C)CC(=O)Nc2c(Cl)cccc2Cl)c(=O)[nH]c1=O	8558	5	-15	3.7	.	6	9
CCCSc1ccc2nc(NC(=O)OC)[nH]c2c1	5344	-8	30	4.4	25	0	1
Cc1ccc(S(=O)(=O)NC(=O)N2CCCC(C)(C)C2)cc1	4192	6	-17	1.5	2	.	.
CS(=O)(=O)c1ccc2nc(NC(=O)CN3CCN(Cc4ccccc4)CC3)sc2c1	11800	-3	-11	11	3	5	1
CC(C)c1ccc(-c2nnc(N)s2)cc1	9679	0	-27	12	0	7	2
NC(=O)c1ccccc1OCc1nc2ccccc2s1	5823	9	-43	0.9	3	3	5

Complete entries, quoted from the list. Screens in order: Bead autofluor	ugtP null kill	PrP 5UTR inh	Sa RN4220 lethal	BJeLR lethal	Mtb hypoxia inh	Mtb hypoxia inh growth
CCCn1c(N)c(C(=O)CN(C)CC(=O)Nc2c(Cl)cccc2Cl)c(=O)[nH]c1=O as listed: 8558	5	-15	3.7	.	6	9
COc1cc(C=NNC(=O)CSc2n[nH]c(=O)[nH]c2=O)cc(OC)c1O as listed: .	4	.	5.0	.	1	-1
CC(=O)Nc1ccc(NC(=O)C(C)OC(=O)c2c(C)nn(-c3ccccc3)c2Cl)cc1 (centres undefined) as listed: 3923	6	-23	4.2	.	14	6
Cc1ccccc1S(=O)(=O)NC(=NCc1ccc(F)cc1)c1ccccc1 as listed: 3478	-1	-21	0.8	.	6	1
NC(=O)c1ccccc1OCc1nc2ccccc2s1 as listed: 5823	9	-43	0.9	3	3	5

Entries shown so far containing a COOH group (3):
SMILES	Bead autofluor	ugtP null kill	PrP 5UTR inh	Sa RN4220 lethal	BJeLR lethal	Mtb hypoxia inh	Mtb hypoxia inh growth
O=C(O)c1ccc(N=Nc2c(O)[nH]c3cc(Cl)ccc23)cc1	3692	.	-77	.	-4	.	.
CCc1ccc(OCc2nnc(SCc3ccc(C(=O)O)cc3)o2)cc1	3320	17	6	12	-1	1	15
COC(=O)c1c(NC(=O)/C=C/C(=O)O)sc(Cc2ccccc2)c1C	9431	-5	-10	16	0	5	-10

Later entries.
SMILES	Bead autofluor	ugtP null kill	PrP 5UTR inh	Sa RN4220 lethal	BJeLR lethal	Mtb hypoxia inh	Mtb hypoxia inh growth
O=C(O)/C=C\C(=O)Nc1ccccc1C#Cc1ccccc1	9909	-4	-43	7.8	1	8	10
O=C(Nc1nc2ccccc2n1CCOc1ccccc1)c1ccco1	2393	-30	7	0.3	2	.	.
CC1CCN(C2CCN(S(=O)(=O)c3ccc(C(F)(F)F)cc3)CC2)CC1	4446	4	-10	2.6	2	18	2
Cc1nn(-c2ccc(Cl)cc2)c2[nH]c(=O)c(CNCc3ccc4c(c3)OCO4)cc12	3022	5	-16	1.4	12	-9	10
Nc1cc(Cl)ccc1C(=O)OCC(=O)NC(=O)NCc1ccccc1	2399	-7	-11	2.5	-12	1	1
COc1ccc(OC)c(N(CC(=O)N2CCc3ccccc3C2)S(C)(=O)=O)c1	7464	11	-30	4.6	9	-4	-8
Fc1cccc(NC(=S)NCCCN2CCOCC2)c1	2771	-6	-16	3.0	-9	.	.
C=CCn1c(N)cc(=O)nc1SCC(=O)Nc1ccc2ccccc2c1	2512	14	-12	14	6	11	8

Source: PubChem
